Screening data from PubChem.
WNV protease inh = inhibitors of WNV NS2B-NS3 protease, primary screen, biochemical, fluorogenic substrate; AID 577, 2007; fluorogenic substrate Ex360/Em465; hits give low values; 0.18% of 65,000 active; Genome polyprotein (West Nile virus), P06935; z-score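 (tested at a level between 10 and 100 µM)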;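 active = z-score at -3 or under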;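 note: score is relative to mean and spread of the compound wells of a plate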
Target sequence (P06935 1371-1501 limits assumed): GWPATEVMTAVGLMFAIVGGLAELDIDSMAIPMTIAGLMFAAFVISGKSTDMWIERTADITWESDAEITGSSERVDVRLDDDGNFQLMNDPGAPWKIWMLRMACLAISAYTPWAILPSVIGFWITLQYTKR
Target sequence (P06935 1502-1679 limits assumed): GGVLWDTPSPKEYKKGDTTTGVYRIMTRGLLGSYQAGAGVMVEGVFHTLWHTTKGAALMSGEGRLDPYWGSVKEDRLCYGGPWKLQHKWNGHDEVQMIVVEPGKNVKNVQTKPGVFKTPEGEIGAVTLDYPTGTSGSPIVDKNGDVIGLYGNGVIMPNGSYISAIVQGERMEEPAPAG
Hsc70 ATP site = Hsc70 inhibitors, probe displacement, primary screen, biochemical, fluorescence polarization (AID 568); Heat shock cognate 71 kDa protein (Homo sapiens); Hsc70 fluorescence polarization, probe displacement; higher % means a stronger effect; strong numbers were not always called active; one-dose displacement, % at 20 µM; IC50 in µM for titrated hits; 83,000 tested, under 10 active;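 active = displacement above 50% without optical interference and an IC50 on retest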;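 note: ATPase domain with a fluorescein-tagged ATP probe; 0% = vehicle and 100% = excess ADP; read after one hour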
MT1-MMP reporter = inhibitors of MT1-MMP promoter transcription, cell-based, luciferase reporter, luminescence (AID 618) | MT1-MMP promoter luciferase reporter cells, luminescence | calls from a first round at 10 µM; hits with a dose series show EC50 in µM | 0.62% of 87,000 active;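 active = over half of the reporter light lost at 10 µM or EC50 under 50 µM; inactive = the rest and hits that failed the dose series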;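 note: actives suppress MT1-MMP promoter-driven transcription so potencies describe inhibitors; HT1080 fibrosarcoma cells; overnight exposure; toxic or luciferase-blocking compounds were not removed from the actives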
Starred values were filed as active, the others as inactive; i = inactive; · = not tested or not shown.

mol,WNV protease inh,Hsc70 ATP site,MT1-MMP reporter
O=C(CCN1C(=O)c2ccncc2C1=O)Nc1ccc2c(c1)OCCO2,1.5,-0.7%,i
Cc1cccc(NC(=O)c2cc(N3C(=O)CCC3=O)ccc2Cl)n1,·,-0.3%,i
Cc1c(NC(=O)c2nn(C)c(=O)c3ccccc23)c(=O)n(-c2ccccc2)n1C,-0.42,4.5%,i
NC(=O)c1ccc(F)cc1,-0.29,-0.5%,i
CC(C)[C@H](NC(=O)Nc1ccc2c(c1)OCCO2)C(=O)O,-1.8,1.9%,i
O=C(CCS(=O)(=O)c1ccc(Br)cc1)N1CCN(c2ccccc2Cl)CC1,·,5.1%,i
CCC1CCCCN1c1cc(C)nc2cc(-c3cccc(C)c3)nn12 (centres undefined),·,0.7%,i
C=CCOC(=O)C1=C(C)NC(SC)=C(C#N)C1c1ccc(OCC)cc1 (centres undefined),-1,-8.3%,i
O=c1[nH]c2ccccc2n1CCC1CCCCC1,·,10%,i
CCN(CC)C(=O)c1sc(NC(=O)Cc2cccs2)c(C#N)c1C,-4.4*,-1.9%,i
COc1ccc(-n2nnc3c(=O)n(Cc4cc(C)ccc4C)cnc32)cc1,0.22,0.1%,i
C=CCc1ccc(OCCCN2CCCC(C)C2)c(OC)c1 (centres undefined),·,0.7%,i

Continued.
mol,WNV protease inh,Hsc70 ATP site,MT1-MMP reporter
CN(Cc1ccccc1)C(=O)c1ccc2c(c1)OCO2,-0.8,-4.0%,i
COc1ccc2[nH]c(=O)c(CN(CCCN3CCOCC3)C(=O)NCc3ccccc3)cc2c1,1,-4.7%,i
CC(Sc1nc(N2CCOCC2)c2c(c1C#N)CC(C)(C)OC2)C(=O)Nc1ccccc1 (centres undefined),-0.2,-13%,i
CC(=O)c1cccc(N(CC(=O)N2CCCCC2)S(C)(=O)=O)c1,·,-2.6%,i
O=C(Cc1noc2ccccc12)Nc1ccc2ccccc2c1,·,1.3%,i
COc1ccc(CNC(=O)Nc2cccc3ccccc23)cc1,·,-1.6%,i
Cc1cc(NC(=O)CSc2ccc(-c3nc4cc(C)c(C)cc4[nH]3)cn2)no1,1.1,-62%,i
COC(=O)c1c(-c2cccnc2)csc1NC(=O)c1cc(C)on1,-0.8,-63%,i
O=C(NC1CCCC1)C1CCCN(S(=O)(=O)c2cnc[nH]2)C1 (centres undefined),0.72,1.0%,i
CCOC(=O)C1CCN(Cc2cnc(NC(=O)OC)s2)CC1,-1.1,-2.6%,i
Cc1nc2ncnn2c(N2CCN(C(c3ccccc3)c3ccccc3)CC2)c1C,1.3,-2.6%,i
CCOC(=O)C1=C(C)NC2=C(C(=O)CC(c3ccc(OC)c(OC)c3)C2)C1c1ccc(C)o1 (centres undefined),0.06,3.0%,i

(cont.)
mol,WNV protease inh,Hsc70 ATP site,MT1-MMP reporter
CCOC(=O)C1(CC)NC(c2ccco2)C2C(=O)N(c3ccc(C)cc3)C(=O)C21 (centres undefined),1.9,0.0%,i
CSCCC1C(=O)OC2(C)CC(C)(C)NC(=S)N12 (centres undefined),·,2.0%,i
COC(=O)CSc1nnc(-c2cccs2)n1-c1ccc(Cl)cc1,0.12,-0.5%,i
O=C(Nc1cccc(Oc2ccc3c(c2)C(=O)NC3=O)c1)c1ccco1,0.76,-0.3%,i
Cc1ccc(S(=O)(=O)NC(C)C(c2cccs2)N2CCN(C)CC2)cc1 (centres undefined),-0.57,-4.6%,i
Cc1ccc(S(=O)(=O)N2CCN(Cc3cccc(C)c3O)CC2)cc1,-1,-0.8%,i
CC(=O)c1cccc(N=C2NC(=O)C(CO)(CO)S2)c1,0.55,-9.0%,i
Cc1ccc(NC(=O)C2CCCN(S(=O)(=O)c3ccc4c(c3)oc(=O)n4C)C2)nc1 (centres undefined),0.52,1.0%,i
Cc1ccc(NC(=O)CS(=O)CC(=O)NCCCN(C)c2ccccc2)cc1 (centres undefined),-0.44,-4.0%,i
O=C(COC(=O)c1ccc(S(=O)(=O)N2CCCC2)cc1)NCc1ccccc1,-0.84,-2.1%,i
CC(C)SCCCOc1ccc(C(C)(C)C)cc1,·,1.1%,i
CCCCCCn1c(SCC(=O)c2c(N)n(C)c(=O)n(C)c2=O)nc2ccccc21,·,1.6%,i

Going on with the list:
mol,WNV protease inh,Hsc70 ATP site,MT1-MMP reporter
CCS(=O)(=O)CCSc1nc(C)cc(C)c1C#N,-0.77,1.0%,i
CCOC(=O)c1cc(C#N)c(SCC(=O)c2cc(C#N)c(SC)nc2C)nc1C,1.6,-16%,i
CC1=C(C(=O)OC(C)C)C(c2c[nH]c3ccccc23)n2ncnc2N1 (centres undefined),1.1,4.3%,i
CC(=O)N1CCN(C2=NC(=O)C(=C3CCCCC3)S2)CC1,·,-1.5%,i
CC(=O)Nc1c(O)n(C)c2ccccc12,0.17,6.6%,i
CC(C)c1nnc(NC(=O)C2CCN(c3nc4ccccc4s3)CC2)s1,-0.03,1.2%,i
O=C(CSc1nnc(-c2ccccn2)n1Cc1ccco1)Nc1ccc2c(c1)OCO2,·,-2.9%,i
O=C1CCCC(O)=C1C1C2=C(CCCC2=O)Oc2ccccc21 (centres undefined),1.5,4.7%,i
CCOC(=O)[C@H](CCc1ccccc1)N[C@@H](C)C(=O)N1CCC[C@H]1C(=O)O,-0.01,2.0%,i
O=C(Nc1nnc(-c2ccc3c(c2)OCCO3)o1)c1ccc(Cc2ccccc2)cc1,-0.75,6.9%,i
c1ccc(NCc2nnc3n2CCCCC3)cc1,-1.5,1.1%,i
O=C(C1CCN(S(=O)(=O)c2cccc3nsnc23)CC1)N1CCN(c2ccccc2F)CC1,1.1,-3.2%,i

(next part)
| Compound | WNV protease inh | Hsc70 ATP site | MT1-MMP reporter |
| --- | --- | --- | --- |
| CN(C)c1ccnc(N(Cc2ccccc2)Cc2ccccc2)c1C#N | · | 3.7% | i |
| CC(C)OC(=O)CSc1nnc(-c2ccco2)n1N | -0.52 | 0.9% | i |
| COc1cc(CN2CC(C)OC(C)C2)cc(OC)c1 (centres undefined) | -0.74 | 2.7% | i |
| COc1ccc(NC(=O)C2CCN(C(=O)NCc3ccccc3)CC2)cc1 | 0.58 | 2.1% | i |
| Cc1cc(C(=O)CN(Cc2ccc(F)cc2)S(=O)(=O)c2ccc3c(c2)OCCO3)c(C)n1C | -0.43 | 2.2% | i |
| CC(C)(C)C(=O)NC1CCN(S(=O)(=O)c2ccccc2F)CC1 | -0.85 | -6.7% | i |
| CC(C)CN(CC(C)C)C(=O)C12CCC(C)(C(=O)C1)C2(C)C (centres undefined) | -0.26 | -0.1% | i |
| CCOC(=O)N1CCN(C(=O)c2cc(S(=O)(=O)N3CCCC3)cn2C)CC1 | -0.13 | -0.5% | i |
| CCOc1ccc(C(O)c2nccn2Cc2ccccc2)cc1 (centres undefined) | -0.5 | -1.6% | i |
| CN1CCN(c2oc(-c3ccco3)nc2S(=O)(=O)c2ccccc2)CC1 | -0.06 | -0.2% | i |
| CCCNC(=O)CS(=O)(=O)Cc1nc(-c2ccccc2C)oc1C | -0.05 | -3.7% | i |
| O=c1[nH]c2c(c3c1CCCC3)CCCC2 | -1.2 | -5.0% | i |
| Cc1cccc(C)c1N1CC(=O)N(c2c(C)cccc2C)CC1=O | · | 5.5% | i |
| Cc1nn(-c2ncc(C(F)(F)F)cc2Cl)c(=O)n1-c1ccccc1 | · | 7.2% | i |
| Cc1cccc(-n2nc(C)cc2N)c1 | · | -0.1% | i |
| Cc1cc(C)nc(Nc2n[nH]c(-c3cccc4ccccc34)n2)n1 | · | 1.3% | i |
| O=C(NCc1ccc2c(c1)OCO2)c1cccc(C(=O)NCc2ccc3c(c2)OCO3)c1 | 2.3 | -1.4% | i |
| CCc1cn([C@H]2C[C@H](O)[C@@H](CO)O2)c(=O)[nH]c1=O | 0.58 | -1.9% | i |
| c1ccc(-c2ccccc2-c2nc(-c3cccnc3)no2)cc1 | -0.9 | -4.0% | i |
| CC(CC(=O)Nc1nncs1)c1ccccc1 (centres undefined) | · | -2.5% | i |
| COC(=O)CN(C#N)c1nc(OC)nc(N(C)C)n1 | -1.9 | -1.0% | i |
| Cc1ccc(-c2nn(C)c(=O)c3ccccc23)cc1CNC(=O)CSc1nc2ccccc2o1 | -0.75 | 1.0% | i |
| CCc1ncc(C(O)c2cccc(OC)c2OC)n1C (centres undefined) | -0.55 | 5.0% | i |
| Cc1onc(-c2ccccc2)c1C(=O)NCCN1CCOCC1 | -0.17 | 3.3% | i |
| NS(=O)(=O)c1ccc(CCNC(=O)Nc2ccc(Cl)cc2)cc1 | -0.57 | -1.7% | i |

Single records, as listed above:
CC(C)CN(CC(C)C)C(=O)C12CCC(C)(C(=O)C1)C2(C)C (centres undefined) is listed as WNV protease inh: -0.26; Hsc70 ATP site: -0.1%; MT1-MMP reporter: i
CCCNC(=O)CS(=O)(=O)Cc1nc(-c2ccccc2C)oc1C is listed as WNV protease inh: -0.05; Hsc70 ATP site: -3.7%; MT1-MMP reporter: i
O=c1[nH]c2c(c3c1CCCC3)CCCC2 is listed as WNV protease inh: -1.2; Hsc70 ATP site: -5.0%; MT1-MMP reporter: i

(more compounds)
| Compound | WNV protease inh | Hsc70 ATP site | MT1-MMP reporter |
| --- | --- | --- | --- |
| CCOC(=O)C1CCCN(CC(=O)NC2CC2)C1 (centres undefined) | -0.17 | 1.9% | i |
| O=C(COC(=O)c1ccco1)NC1CCCCC1 | 2.3 | 4.6% | i |
| Cc1cc(C)n2nc(C(=O)OCCOc3ccc(Br)cc3)nc2n1 | 0.52 | 4.1% | i |
| CCCn1nnnc1SCC(=O)N1CCOCC1 | 0.43 | 2.8% | i |
| Cc1cc(C)nc(-n2nc(C)c(C3(O)C(=O)Nc4ccccc43)c2N)n1 (centres undefined) | -0.45 | 7.0% | i |
| O=c1[nH]nnc2sc3c(c12)CCCC3 | 1.3 | 2.1% | i |
| COc1cc(Nc2ccc(C)cc2)c([N+](=O)[O-])nc1[N+](=O)[O-] | · | 1.3% | i |
| Cc1cnn(-c2nc(-c3cccs3)cc(C(F)(F)F)n2)c1 | -1.7 | -4.9% | i |
| O=C(c1ccco1)N1CCN(C(=O)C2CCN(S(=O)(=O)c3cnc[nH]3)CC2)CC1 | 0.53 | -4.2% | i |
| O=C(CCOc1ccccc1)N1CCN(S(=O)(=O)c2cccs2)CC1 | · | -6.9% | i |
| COc1ccc(-n2c(Cc3cccn3C)nnc2SCC(=O)NCc2ccccc2Cl)cc1 | -0.25 | -2.8% | i |
| O=C(Cn1cc(C(=O)C2CC2)c2ccccc21)NCC1CCCO1 (centres undefined) | -0.58 | -2.1% | i |
| N/C(=N\OC(=O)Nc1ccc(Cl)c(Cl)c1)c1ncc(C(F)(F)F)cc1Cl | · | 0.8% | i |
| COc1ccc(NC(=O)Nc2cc(C)ccc2F)cc1 | · | 3.9% | i |
| COCCCN1C(=O)c2[nH]nc(-c3cc(C)cc(C)c3O)c2C1c1ccc(O)c(OC)c1 (centres undefined) | 1.1 | -1.6% | i |
| Cc1ccc(Cl)cc1N1CCN(C(=O)CCC(=O)O)CC1 | -0.54 | 0.1% | i |
| CCOC(CNC(=O)CCc1c(C)nc2nc(C)nn2c1C)OCC | · | -0.3% | i |
| CCOc1ccccc1C(=O)NCCCN1CCN(CCCNC(=O)c2ccccc2OCC)CC1 | -0.18 | -7.4% | i |
| C=CCOc1ccc(Oc2cc(C)nc(SC)n2)nn1 | · | 0.3% | i |
| CC(C)CC(=O)NC1(C(F)(F)F)C(=O)Nc2c1c(=O)n(C)c(=O)n2C (centres undefined) | 1.1 | 1.3% | i |
| Cc1c(C(=O)NCC2CCCO2)oc2ccc(S(=O)(=O)N3CCCCC3)cc12 (centres undefined) | -0.37 | -1.9% | i |
| COc1cc(OC)cc(C(=O)Nc2ccc3c(c2)COC3=O)c1 | -0.94 | 7.4% | i |
| CCSc1ncnc2c1oc1ccccc12 | -1.2 | 0.2% | i |
| O=c1[nH]c(CSc2nnc(-c3ccco3)n2-c2ccccc2)nc2sc3c(c12)CCC3 | 0.25 | 0.2% | i |
| c1ccc(C(c2nnnn2C2CCCC2)N2CCN(c3ccccc3)CC2)cc1 (centres undefined) | · | 3.1% | i |

(list continues)
| Compound | WNV protease inh | Hsc70 ATP site | MT1-MMP reporter |
| --- | --- | --- | --- |
| Cc1c(C(=O)N2CCCC2)sc(NC(=O)c2ccc(Cl)cc2)c1C#N | · | -4.2% | i |
| Cn1c(C(=O)NCCN2CCCCCC2)cc2c(=O)n(C)c3ccccc3c21 | 0.65 | 2.6% | i |
| CCCC12CN3CC(C)(CN(C1)C3c1ccc(OC(C)C)cc1)C2=O (centres undefined) | 0.91 | -0.4% | i |
| Cn1c(=O)c2c(nc(SCc3ccccc3)n2Cc2ccc(Cl)cc2)n(C)c1=O | · | -5.7% | i |
| COc1ccc(C(c2nnnn2CCc2ccccc2)N2CCN(C3CCCC3)CC2)cc1OC (centres undefined) | -0.54 | 5.7% | i |
| O=C1C(C=NCC2CCCO2)=C(O)c2ccccc21 (centres undefined) | -0.66 | -1.7% | i |
| COc1cc2c3c(c1)c(C1=NC(=S)NC1=O)c(O)n3C(C)(C)C=C2C | · | 0.5% | i |
| Cc1cc(NC(=O)CN2CCN(S(=O)(=O)c3ccc4ccccc4c3)CC2)no1 | · | 8.4% | i |
| CCOc1cc(S(=O)(=O)N(CC)CC)ccc1F | · | -4.1% | i |
| Cc1nc(C)c(C(=O)C2=C(O)C(=O)N(CCN(C)C)C2c2cccs2)s1 (centres undefined) | -0.02 | -4.1% | i |
